Screens from PubChem.
Mtb bLac sens – beta-lactam sensitization of Mtb H37Rv; M. tuberculosis H37Rv growth with meropenem, percent inhibition; hits of this screen are not shown here; inhibition, % at 25 µM; 330,000 compounds, 0.27% hits;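 active = about 74% or more and at least 40 points above the plate without the antibiotic, then above 30% in a dose series; inconclusive = first-round hits that could not be retested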;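 also: growth measured after seven days incubation then overnight dye step; 0% = bacteria only wells and 100% = bacteria with antibiotic; twin plates without the antibiotic show which effects depend on it; some results filed as inactive read as strong as hits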
* marks the source's active call; other numbers are inactive results; u = inconclusive.

cpd | mol | Mtb bLac sens
1 | CC(C)CC1Nc2ncnc(N3CCN(c4ccccn4)CC3)c2N(Cc2ccc(Cl)cc2)C1=O (centres undefined) | 2
2 | C=CCN1CC[C@]23c4c5ccc(O)c4OC2C(O)C=CC3[C@H]1C5 (some centres undefined) | 1
3 | c1ccc2nc(N3CCNCC3)ccc2c1 | -6
4 | C[C@H]1COC(=O)[C@H](CC(=O)OC(C)(C)C)C/C=C\C[C@@H](CC(=O)N[C@H](CO)Cc2ccccc2)C(=O)N1 | -3
5 | O=C(COC(=O)Cc1ccc(S(=O)(=O)N2CCOCC2)s1)Nc1ccc(F)cc1F | 1
6 | CN(C)C1=NC[C@H](Cc2ccccc2)N1CCc1cccc(F)c1 | -13
7 | Cc1nc([N+](=O)[O-])cn1CC(=O)Nc1ccc(F)c(Cl)c1 | 7
8 | CCCCOc1ccc(C(=O)NCC(=O)NC2CCCCC2)cc1 | 0
9 | COc1cc(CCC(=O)N2CCN(S(=O)(=O)c3ccc(C)cc3)CC2)cc(OC)c1OC | -3
10 | COc1cc(NC(=O)CN2CCN(c3ccccn3)CC2)cc(OC)c1OC | -5
11 | COc1ccc(C(=O)COC(=O)c2cc(C)no2)c(OC)c1 | 0
12 | COc1cc2sc3cc(NCC[C@@H]4CCCN4C)ccc3c(=O)c2cc1OC | 73
13 | CN(C)C(=O)c1ccc(NC(=O)c2cccc(S(=O)(=O)N3CCCCCC3)c2)cc1 | -5
14 | COc1ccccc1OC(C)C(=O)N1CCN(Cc2ccc3c(c2)OCO3)CC1 (centres undefined) | -5
15 | CSc1ccccc1OCc1cc(C(=O)N2CCC(c3ccncc3)CC2)no1 | u
16 | C[C@H]1CC2C3CC=C4C[C@@H](O)CC[C@]4(C)C3CC[C@]2(C)[C@H]1O (some centres undefined) | -12
17 | CCN(CC(=O)Nc1cccc(OC)c1)CC(=O)Nc1cccc2ccccc12 | 1
18 | COC(=O)c1c(-c2ccc(SC)cc2)sc2ccccc12 | 19
19 | COc1ccc(NC(=O)COC(=O)CO/N=C(\C)c2ccc3c(c2)OCO3)cc1S(N)(=O)=O | 9
20 | COc1ccc(N2CCN(C(=O)COC(=O)c3oc4ccccc4c3C)CC2)cc1 | 2

Retrieved by compound from the entries so far:
cpd | mol | Mtb bLac sens
19 | COc1ccc(NC(=O)COC(=O)CO/N=C(\C)c2ccc3c(c2)OCO3)cc1S(N)(=O)=O | 9
15 | CSc1ccccc1OCc1cc(C(=O)N2CCC(c3ccncc3)CC2)no1 | u
18 | COC(=O)c1c(-c2ccc(SC)cc2)sc2ccccc12 | 19
20 | COc1ccc(N2CCN(C(=O)COC(=O)c3oc4ccccc4c3C)CC2)cc1 | 2
17 | CCN(CC(=O)Nc1cccc(OC)c1)CC(=O)Nc1cccc2ccccc12 | 1
1 | CC(C)CC1Nc2ncnc(N3CCN(c4ccccn4)CC3)c2N(Cc2ccc(Cl)cc2)C1=O (centres undefined) | 2
13 | CN(C)C(=O)c1ccc(NC(=O)c2cccc(S(=O)(=O)N3CCCCCC3)c2)cc1 | -5

The results go on.
cpd | mol | Mtb bLac sens
21 | CCN(CC(=O)Nc1ccc(NC(C)=O)cc1)C(=O)c1c(C)nn(-c2ccc(F)cc2)c1Cl | -1
22 | CC1CCCCN1C(=O)CN1C(=O)NC2(CCCCC2C)C1=O (centres undefined) | 2
23 | COc1cc(OC)cc(-c2c(-c3ccc(F)cc3)c3cc(-c4cnc(OC)nc4)ccc3n2C)c1 | 47
24 | CS(=O)(=O)c1ccc(-c2sc3cc4c(cc3c2C(=O)NN2CCOCC2)OCO4)cc1 | 5
25 | Cc1cc(C(=O)Nc2ccccc2C(=O)O)c(C)o1 | -5
26 | Cc1nn(Cc2noc(C(=O)NCCc3ccccn3)n2)c(C)c1Br | 1
27 | Clc1ccccc1-c1ccc2ncnc(NCc3cccs3)c2c1 | 59
28 | CN(Cc1ccco1)C(=O)CN1C(=O)NC2(CCCCC2)C1=O | -1
29 | CCN1C(=O)[C@@H]2[C@@H](c3ccc(SC4CCCCC4)c(OC)c3)N3CCCC[C@@]3(C(=O)OC)[C@@H]2C1=O | -9
30 | CC(=O)Nc1ccc(NC(=O)C(C)OC(=O)c2cccs2)cc1 (centres undefined) | 5
31 | O=c1c2ccccc2n2c(=S)[nH]nc2n1-c1ccccc1 | 6
32 | COc1ccccc1NC(=O)C(C)OC(=O)c1cc2ccccc2[nH]1 (centres undefined) | 53
33 | O=C(C1CCCO1)N1CCN(C(=S)Nc2ccc(Br)cc2)CC1 (centres undefined) | u
34 | O=C(NCc1ccc(Cl)cc1)[C@@H]1CCCN1S(=O)(=O)c1ccc(Cl)cc1 | 0
35 | Cc1ccc(C(C)C)c(OCCn2ccnc2C)c1 | 4
36 | Cc1ccc(S(=O)(=O)N2CCN(C(=O)c3ccc4ccccc4n3)CC2)c(C)c1 | 3
37 | C[C@H](CO)N1C[C@H](C)[C@@H](CN(C)S(=O)(=O)c2ccc(F)cc2)Oc2ccc(NS(=O)(=O)c3cccs3)cc2C1=O | 2
38 | COCCN(C(=O)c1ccc(-c2ccc(Cl)cc2)o1)c1c(N)n(CC(C)C)c(=O)[nH]c1=O | -1
39 | Cc1ccc(CN(C)C(=O)CCNS(=O)(=O)c2ccccc2)o1 | 2
40 | NC(=O)C1CCN(C(=O)c2cc3c(s2)CCCCC3)CC1 | -3
41 | O=C(COC(=O)c1ccc([N+](=O)[O-])o1)NC1CCCC1 | 85
42 | COc1ccc(-c2coc3cc(OC4OC(CO)C(O)C(O)C4O)cc(O)c3c2=O)cc1 (centres undefined) | 2
43 | CN(CCOc1ccc(Cl)cc1)C(=O)c1ccccc1SCC(=O)N1CCCC1 | -9
44 | CCC(C)(C)NC(=O)CN(Cc1ccco1)C(=O)CCC(=O)Nc1nccs1 | -6
45 | CN(Cc1ccccc1F)c1nc(-c2cccnc2)nc2ccccc12 | 0
46 | O=C(/C=C/c1ccc(S(=O)(=O)N2CCOCC2)cc1)NCc1ccccc1F | -2
47 | O=S(=O)(Nc1cccc(S(=O)(=O)N2CCCC2)c1)c1ccc(Cl)cc1 | 1
48 | O=[N+]([O-])c1ccccc1CCl | 7
49 | Cc1ccc(NC(=O)CN2C(=O)N/C(=C\c3ccco3)C2=O)cc1 | -7
50 | COc1ccc(-c2c(-c3cc(OC)cc(OC)c3)n(C)c3ccc(-c4ccc(OC)c(F)c4)cc23)cc1 | -2
51 | COCCNC(=O)Cn1cnc2c(cnn2-c2ccc(C)cc2)c1=O | -10
52 | O=C(COC(=O)c1ccc(Br)o1)NCc1ccc(F)cc1 | 3
53 | COc1ccc(C(CNC(=O)COc2cccc(C)c2)N2CCCC2)cc1 (centres undefined) | -6
54 | COc1ccccc1CN(C)CC(=O)NC(=O)NC1CCCCC1 | -2
55 | COc1ccc(-c2csc(NCCn3c(C)nc4cc(C(F)(F)F)ccc43)n2)cc1 | 3
56 | O=C(Nc1ccccc1N1CCOCC1)c1ccc(Cl)c(S(=O)(=O)N2CCCC2)c1 | -1
57 | CC(NC(=O)COC(=O)c1cc(S(=O)(=O)N2CCOCC2)ccc1F)c1ccccc1 (centres undefined) | -1
58 | CNC[C@H]1Oc2ccc(NC(=O)Cc3cn(C)c4ccccc34)cc2CC(=O)N([C@@H](C)CO)C[C@H]1C | 0
59 | O=C(CCNC(=O)c1ccc(Br)cc1)NNC(=O)c1ccccc1 | 1
60 | CN(c1ccccc1)S(=O)(=O)c1ccc(Cl)c(C(=O)NCC(c2ccco2)N2CCCC2)c1 (centres undefined) | -1
61 | Cc1cc(C)c(NC(=O)COC(=O)c2nc3nccc(C)n3n2)c(Cl)c1 | -1
62 | COc1ccccc1C(=O)NCC(=O)N1CC=C(c2ccccc2)CC1 | -8
63 | COc1ccc(OC)c(N(CC(=O)N2CCCC2)S(=O)(=O)c2ccccc2)c1 | -4
64 | O=C(Nc1ccccn1)c1cccc(S(=O)(=O)N2CCCc3ccccc32)c1 | 5
65 | CC1(NC(=O)Cc2ccc(Cl)c(Cl)c2)CCS(=O)(=O)C1 (centres undefined) | -6
66 | CC(Sc1nnnn1-c1ccc(O)cc1)C(=O)NNC(=O)c1ccc(F)cc1 (centres undefined) | -8
67 | CC(=O)Oc1c(C)c(C)c2c(c1C)CC[C@@](C)(CCC[C@H](C)CCC[C@H](C)CCCC(C)C)O2 | -3
68 | Cc1cc2c(c(CO)c1CCO)C(=O)[C@@H](C)[C@@H]2O | 0
69 | Cc1ccc(S(=O)(=O)N2CCN(CC(O)CN3CCOCC3)CC2)cc1 (centres undefined) | -9
70 | COc1ccc(OC)c(NC(=O)COC(=O)Cn2nnc(-c3ccccc3)n2)c1 | -3
71 | Cc1ccc(Br)c(NS(=O)(=O)c2cccc(C(=O)N3CCNC(=O)C3)c2)c1 | 1
72 | COc1cccc(N2CCN(CC(=O)Nc3ccccc3C(=O)NCc3ccccc3)CC2)c1 | 37
73 | O=C(COC(=O)c1cccnc1Cl)NC1CCCCC1 | -1
74 | CCN(C(=O)COC(=O)/C=C/c1ccc(OC(F)F)c(OC)c1)C1CCS(=O)(=O)C1 (centres undefined) | 1
75 | Cc1nnc(NC(=O)c2cccc(S(=O)(=O)N(C)c3cccc(Cl)c3)c2)s1 | -3
76 | COc1ccccc1CNC(=O)COC(=O)C12CC3CC(CC(O)(C3)C1)C2 | -10
77 | CC1CCC(NC(=O)COC(=O)c2cccnc2Cl)CC1 (centres undefined) | 1
78 | O=S(=O)(NCCC1=CCCCC1)c1ccccc1Cl | 10
79 | C#CCOCCOCCOCCNc1nc(N2CCN(C(=O)[C@H](CCC(=O)O)n3cc(CN)nn3)CC2)nc(N2CCN(C(=O)[C@H](CCC(=O)O)n3cc([C@@H](N)[C@H](C)CC)nn3)CC2)n1 | -6
80 | C[C@H](CO)N1C[C@H](C)[C@@H](CN(C)Cc2ccc(Cl)c(Cl)c2)Oc2c(NS(=O)(=O)c3cccs3)cccc2C1=O | 11

More compounds follow.
cpd | mol | Mtb bLac sens
81 | COC(=O)C1=C(c2ccc(F)cc2OCc2ccccc2)C[C@@H]2CC[C@H]1N2C(=O)NCc1ccc(Br)cc1 | -5
82 | C#CCOCCOCCOCCNc1nc(N2CCN(C(=O)C(Cc3cc4ccccc4[nH]3)n3cc(C(N)Cc4ccc(O)cc4)nn3)CC2)nc(N2CCN(C(=O)C(CCC(=O)O)n3cc(C(N)C(C)CC)nn3)CC2)n1 (centres undefined) | -7
83 | CN(C(=O)COC(=O)c1cc(=O)[nH]c2ccccc12)c1ccccc1 | -1
84 | CCCn1nc(C(=O)N2CCN(S(=O)(=O)c3ccc(C)c(C)c3)CC2)c2ccccc2c1=O | 9
85 | Brc1ccc(-c2ccc(C3Nc4cccc5cccc(c45)N3)o2)cc1 | u
86 | CCN(C[C@H]1N[C@@](C)(C(=O)OC)[C@H]2C(=O)N(C)C(=O)[C@@H]12)C(=O)c1ccc(F)cc1 | -3
87 | Cc1ccc2c(c1)CCCN2CC(=O)N(C)c1c(N)n(Cc2ccccc2)c(=O)[nH]c1=O | 1
88 | C[C@@H](C(=O)NCCc1ccccc1)N1C(=O)N2CCc3c([nH]c4ccccc34)[C@@]2(C)C1=O | -2
89 | C=CC(=O)N1CCCC(Nc2nc(Nc3ccc(N(C)C(=O)CC)cc3C)nc3nc[nH]c23)C1 (centres undefined) | -10
90 | Cc1ccc(CNC(=O)c2cccc3c2C(=O)c2ccc(N4CCOCC4)cc2S3(=O)=O)cc1 | -1
91 | CC(C(=O)Nc1ccc(S(=O)(=O)N2CCCC2)cc1)N1CCc2ccccc2C1 (centres undefined) | -4
92 | Cc1ccc(C)c(S(=O)(=O)NC(C)C(=O)NCc2ccccn2)c1 (centres undefined) | u
93 | CCC(C)c1ccc(NC(=O)COC(=O)CCNC(=O)c2ccco2)cc1 (centres undefined) | -1
94 | C[C@H](CO)N1C[C@H](C)[C@@H](CN(C)C(=O)NC2CCCCC2)Oc2c(NC(=O)CCC(F)(F)F)cccc2C1=O | -4
95 | CCCSc1ccc([C@@H]2[C@@H]3C(=O)N(C)C(=O)[C@@H]3[C@]3(C(=O)OC)CCCN23)cc1OC | -8
96 | CN(C)c1cccc(O)c1 | 34
97 | O=C(CN1CCN(c2ccccc2O)CC1)NC(=O)NCc1ccccc1 | -10
98 | COc1ccc(S(=O)(=O)Oc2cccc(C(=S)N3CCOCC3)c2)cc1 | u
99 | O=S(=O)(c1ccccc1)c1nc(-c2ccc(F)cc2)oc1NCC1CCCO1 (centres undefined) | -1
100 | CCOc1ccc(C(C(=O)NCC2CCCO2)N(Cc2cccs2)C(=O)c2snc(C(N)=O)c2N)cc1 (centres undefined) | 2

The final three entries of the part before are carried over, then new ones follow.
cpd | mol | Mtb bLac sens
98 | COc1ccc(S(=O)(=O)Oc2cccc(C(=S)N3CCOCC3)c2)cc1 | u
99 | O=S(=O)(c1ccccc1)c1nc(-c2ccc(F)cc2)oc1NCC1CCCO1 (centres undefined) | -1
100 | CCOc1ccc(C(C(=O)NCC2CCCO2)N(Cc2cccs2)C(=O)c2snc(C(N)=O)c2N)cc1 (centres undefined) | 2
101 | CC(C)[C@H](NS(=O)(=O)c1ccccc1)C(=O)OCC(=O)NC1CCCCC1 | 1
102 | O=C(CN1CCN(CC(=O)Nc2ccccc2Cl)CC1)NCC1(N2CCCCC2)CCCCC1 | 8
103 | CCOC(=O)c1[nH]cnc1C(=O)NC1CCN(C(=O)OC(C)(C)C)CC1 | 10
104 | CCN(C(=O)COC(=O)c1cccnc1SC)C1CCCCC1 | 8
105 | O=C(CCCOc1ccccc1)Nc1cc(S(=O)(=O)N2CCOCC2)ccc1N1CCOCC1 | 10
106 | CCN(c1ccc(NC(=O)CSCc2c(C)noc2C)cc1)C(C)C | 4
107 | CN(C)c1ccc(S(=O)(=O)N2CCCCC2)cc1NC(=O)CCNC(=O)c1ccco1 | 0
108 | C=CCn1c(SCC(=O)NC2(C)CCS(=O)(=O)C2)nc2ccccc21 (centres undefined) | -2
109 | CCN(C(=O)C(=O)c1c[nH]c2ccccc12)c1ccccc1 | -4
110 | CC1(c2ccccc2Cl)NC(=O)N(CC(=O)N2CCc3ccccc32)C1=O (centres undefined) | -4
111 | Cc1nn(C)cc1C(C)NC(=O)c1cc(COc2cccc3cnccc23)on1 (centres undefined) | -7

An excerpt, so the mix of outcomes need not match the whole.
